AF4-AF9 inh: blocks AF4 peptide binding to human AF9 | 350,000 compounds, 0.47% hits | AlphaScreen, biotin-AF4 peptide binding to FLAG-AF9 | P42568 | inhibition, % at 10 µM;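 active means every replicate reaching a set inhibition limit, whatever the replicate mean, cut at about 25% in these data; inconclusive means mean inhibition reaches that limit but some replicates miss it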;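 further: 0% = plate neutral control median and 100% = total signal loss; the record names both 10 and 1 µM as test concentration; the first replicate is given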
Target sequence (P42568 whole entry, looked up): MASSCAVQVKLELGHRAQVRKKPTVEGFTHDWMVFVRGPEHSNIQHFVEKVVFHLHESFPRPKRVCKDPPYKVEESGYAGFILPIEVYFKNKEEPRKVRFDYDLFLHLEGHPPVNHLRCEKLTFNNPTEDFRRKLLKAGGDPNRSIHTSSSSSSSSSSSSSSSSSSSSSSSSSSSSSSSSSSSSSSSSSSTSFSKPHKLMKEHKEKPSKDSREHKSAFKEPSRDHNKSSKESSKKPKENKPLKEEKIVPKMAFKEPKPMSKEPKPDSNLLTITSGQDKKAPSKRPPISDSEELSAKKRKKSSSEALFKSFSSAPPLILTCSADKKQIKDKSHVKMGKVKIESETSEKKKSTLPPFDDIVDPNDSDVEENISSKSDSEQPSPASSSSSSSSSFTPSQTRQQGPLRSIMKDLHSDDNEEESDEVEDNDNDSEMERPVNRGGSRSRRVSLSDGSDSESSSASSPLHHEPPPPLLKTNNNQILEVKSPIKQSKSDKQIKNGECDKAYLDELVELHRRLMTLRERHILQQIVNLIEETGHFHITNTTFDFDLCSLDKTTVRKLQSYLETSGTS
Ecoli growth: inhibitors of Escherichia coli growth; OD600, 23 h; stronger effect = lower value; OD600 absorbance (test concentration not listed); 330,000 compounds, 0.21% hits;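 active means OD600 absorbance below the run mean of sample wells minus 3.6 SD, in any replicate, cut at about 0.56 in these data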;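 further: stock transfer was 300 nL into about 60 µL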
Vif A3G: inhibitors of Vif binding to APOBEC3G peptide, primary screen, biochemical, TR-FRET, GST-Vif 1-94, biotin-A3G peptide, dose response retest (AID 1117319); 260,000 compounds, 0.57% hits; TR-FRET GST-Vif / biotin-A3G peptide binding; higher % means a stronger effect; test concentration not given here; strong numbers were not always called active; inhibition, %, or IC50 in µM where a hit was titrated;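 active means above the screen mean plus three standard deviations and confirmed in dose response; inconclusive means results disagree or hit not tested in dose response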;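 further: Vif residues 1-94 fused to GST binding biotinylated APOBEC3G peptide 110-148; 0% = full assay without inhibitor and 100% = GST in place of GST-Vif; retest series ran down from 100 µM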
FGF22 binding: FGF22 (human) thermal shift binding; AID 651658; Q9HCT0; calls only at 9.99 µM; recombinant FGF22 thermal shift, SYPRO orange fluorescence; percent of sucrose octasulfate shift, DMSO zero; 340,000 compounds, 1.5% hits;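 active means melting point raised past a set limit in the mean and every replicate; inconclusive means no clear call; three in four hits are not shown here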
Target sequence (Q9HCT0 whole entry, looked up): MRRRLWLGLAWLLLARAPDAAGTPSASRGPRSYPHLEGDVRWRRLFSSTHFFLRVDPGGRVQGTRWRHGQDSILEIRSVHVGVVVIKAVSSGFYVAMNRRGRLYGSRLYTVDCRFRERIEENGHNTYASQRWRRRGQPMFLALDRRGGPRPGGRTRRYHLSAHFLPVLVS
RanGTP-Imp inh: disruptors of Ran-importin-beta complex formation – biochemical, FRET, CFP-Ran, YFP-importin-beta, homogeneous, primary screen; 300,000 compounds, 1.1% hits; inhibition, % (test concentration not listed); AID 2216; cell-free CFP-Ran/YFP-importin-beta FRET ratio;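 active means most replicates above 15%; inconclusive means exactly half above 15%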;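 further: 0% = DMSO wells and 100% = Ran loaded with GDP instead of GTP; wells of about 40 µL received 100 nL stock; the first replicate is given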
UCH37 DUB inh: inhibitors of human deubiquitinating enzyme UCH37; AID 588478; 330,000 compounds, 0.33% hits; inhibition, % (test concentration not listed); purified proteasome/UCH37, Ub-AMC cleavage fluorescence;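 active means mean of two replicates above 20%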;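 further: 0% = compound-free wells with enzyme and 100% = wells lacking proteasome; stock transfer was 100 nL into about 20 µL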
Target sequence (Q9Y5K5 whole entry, looked up): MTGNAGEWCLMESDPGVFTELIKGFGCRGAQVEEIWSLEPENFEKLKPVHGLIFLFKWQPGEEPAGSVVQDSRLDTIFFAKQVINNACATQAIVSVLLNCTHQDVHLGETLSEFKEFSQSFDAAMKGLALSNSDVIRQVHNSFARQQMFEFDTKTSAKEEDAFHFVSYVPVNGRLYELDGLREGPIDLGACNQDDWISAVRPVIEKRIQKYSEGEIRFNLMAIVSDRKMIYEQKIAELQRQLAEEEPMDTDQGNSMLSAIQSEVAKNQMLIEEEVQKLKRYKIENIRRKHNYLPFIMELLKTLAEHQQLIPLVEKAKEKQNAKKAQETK
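Material: human UCH37 enzyme supplied as purified proteasome complex / Amount: 0.15 nM proteasome as dispensed / Buffer or medium: pH 7.4 Tris-HCl (50 mM) with ovalbumin, ATP-MgCl2, DTT / Times: preincubation 30 min, reaction 25 min, room temperature / Technique: AMC fluorescence from Ub-AMC cleavage, excitation 355 nm, emission 460 nm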
HNF4A DNA FP: change in binding of human HNF4 alpha to DNA; P41235; HNF4a-FITC DNA binding, fluorescence polarization, 1 h; activity change, % at 10 µM; 360,000 compounds, 0.3% hits; in the data active means activity change above about 30%, passing the limit was not always enough;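 further: controls were the assay level and a saturating level of protein; the project sought stronger binding though the title names inhibitors; some compounds called inactive have numbers as strong as hits; positive values seem to mean higher polarization but the record does not say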
Numbers without * were called inactive. An excerpt; the hit share may differ from the screen's.

Results for COc1cc(CN(C)C(=O)C2CCN(S(=O)(=O)c3cccs3)CC2)ccc1OC(F)F ?
AF4-AF9 inh: 0.0; Ecoli growth: 0.63; FGF22 binding: inactive; UCH37 DUB inh: 0.4; HNF4A DNA FP: -0.4

How did Cc1cc(-c2csc(NC(=O)c3ccc(=O)n(C)n3)n2)c(C)n1CC1CCCO1 (stereo not drawn) do in these assays?
Ecoli growth: 0.72; Vif A3G: inconclusive; RanGTP-Imp inh: -4.9; UCH37 DUB inh: 4.1; HNF4A DNA FP: 4.8

Results for Cc1ccc(C2C=C(c3ccccc3)Nc3nc(N4C(=O)CCC4=O)nn32)cc1 (stereo not drawn) ?
AF4-AF9 inh: -0.9; Ecoli growth: 0.68; UCH37 DUB inh: -93; HNF4A DNA FP: -6.9

What do the screens show for `CC(C)N1C(=O)S/C(=C/c2cccnc2)C1=O`?
Ecoli growth: 0.68; Vif A3G: -4%; RanGTP-Imp inh: -3.8; UCH37 DUB inh: 1.8; HNF4A DNA FP: 0.3

What do the screens show for `N#Cc1ccccc1S(=O)(=O)N1CCN(C(=O)c2cccc(S(=O)(=O)N3CCCC3)c2)CC1`?
AF4-AF9 inh: -2.0; Ecoli growth: 0.67; FGF22 binding: inactive; UCH37 DUB inh: 1.4; HNF4A DNA FP: 0.0

Results for CCOc1ccc(C(C)=O)cc1CN1C(=O)NC2(CCCCCCC2)C1=O ?
AF4-AF9 inh: 3.8; Ecoli growth: 0.71; FGF22 binding: inactive; RanGTP-Imp inh: -2.5; UCH37 DUB inh: 1.2; HNF4A DNA FP: 6.7

Results for COc1ccc(C(=O)N/C(=C\c2cn(S(=O)(=O)N(C)C)c3ccccc23)C(=O)N2CCCC2)cc1 ?
AF4-AF9 inh: 1.4; Vif A3G: 6%; FGF22 binding: inactive; HNF4A DNA FP: -4.8

What do the screens show for `CCNc1ncnc2c1cnn2C1CCCO1` (stereo not drawn)?
AF4-AF9 inh: -44; Ecoli growth: 0.68; Vif A3G: 1%; FGF22 binding: inactive; UCH37 DUB inh: 1.1; HNF4A DNA FP: -0.4

What do the screens show for `Clc1ccc(C2=NN=C3COc4ccccc4N3C2)cc1`?
AF4-AF9 inh: 2.4; Ecoli growth: 0.65; Vif A3G: 4%; FGF22 binding: inactive; RanGTP-Imp inh: -0.9; UCH37 DUB inh: -3.8; HNF4A DNA FP: 1.1

Results for O=c1cc(CO)oc(CN2CCN(c3cccc(C(F)(F)F)c3)CC2)c1O ?
Ecoli growth: 0.7; Vif A3G: 14%; RanGTP-Imp inh: inconclusive; UCH37 DUB inh: -1.8; HNF4A DNA FP: 0.7

How did COc1cc(C2C(C#N)=C(N)Oc3cc(C)oc(=O)c32)cc(OC)c1OC (stereo not drawn) do in these assays?
AF4-AF9 inh: -2.5; Ecoli growth: 0.7; Vif A3G: -5%; FGF22 binding: inactive; RanGTP-Imp inh: -1.9; UCH37 DUB inh: 6.0; HNF4A DNA FP: 1.3

What do the screens show for `CC(=O)c1ccc(S(=O)(=O)NCc2cccnc2)cc1`?
AF4-AF9 inh: -0.5; Ecoli growth: 0.68; Vif A3G: 1%; FGF22 binding: inactive; RanGTP-Imp inh: inconclusive; UCH37 DUB inh: 0.9; HNF4A DNA FP: 2.2

Results for COC(=O)Cc1ccc(NC(C)=O)cc1 ?
AF4-AF9 inh: -0.3; Ecoli growth: 0.62; FGF22 binding: inactive; UCH37 DUB inh: 2.4; HNF4A DNA FP: -2.9

What do the screens show for `COc1ccccc1CNC(=O)CS(=O)Cc1nc(-c2ccccc2C)oc1C` (stereo not drawn)?
AF4-AF9 inh: 8.0; Ecoli growth: 0.74; Vif A3G: 0%; FGF22 binding: inactive; RanGTP-Imp inh: -4.8; UCH37 DUB inh: 5.2; HNF4A DNA FP: 5.2

How did O=C(CNC(=O)c1cccs1)N=Nc1c(O)[nH]c2ccc([N+](=O)[O-])cc12 do in these assays?
AF4-AF9 inh: -3.0; Ecoli growth: 0.69; Vif A3G: 6%; FGF22 binding: inactive; RanGTP-Imp inh: -1.7; UCH37 DUB inh: 14; HNF4A DNA FP: -0.2

Results for Cc1ccccc1OCC(=O)OCC(=O)c1ccc(OC(=O)c2ccccc2)cc1 ?
Ecoli growth: 0.69; Vif A3G: 42%; RanGTP-Imp inh: inconclusive; UCH37 DUB inh: 5.3; HNF4A DNA FP: -0.4

Results for Cc1cccc(OCc2nnc(SCc3nc4ccccc4c(=O)[nH]3)o2)c1 ?
Ecoli growth: 0.8; Vif A3G: inconclusive; RanGTP-Imp inh: 3.3; UCH37 DUB inh: 1.1; HNF4A DNA FP: 3.5

What do the screens show for `Cc1ccc(-n2nc(C)c(Sc3ccccc3[N+](=O)[O-])c2N)cc1`?
AF4-AF9 inh: 19; Ecoli growth: 0.69; Vif A3G: -1%; FGF22 binding: inactive; RanGTP-Imp inh: 4.6; UCH37 DUB inh: 1.5; HNF4A DNA FP: 3.0

How did COc1ccc(C(=O)CSc2nccn2C)c(OC)c1 do in these assays?
AF4-AF9 inh: 0.3; Ecoli growth: 0.67; FGF22 binding: inactive; RanGTP-Imp inh: -0.1; UCH37 DUB inh: 2.4; HNF4A DNA FP: 1.0

How did CS(=O)(=O)N1CCC(C(=O)Nc2ccc(Oc3ccccc3)cc2)CC1 do in these assays?
Ecoli growth: 0.61; Vif A3G: 0%; RanGTP-Imp inh: 2.1; UCH37 DUB inh: -0.1; HNF4A DNA FP: -1.9

What do the screens show for `Cc1cc(NC(=O)c2ccc3c(c2)C(=O)N(C(C)(C)C)C3=O)no1`?
AF4-AF9 inh: -1.9; Ecoli growth: 0.73; Vif A3G: 8%; FGF22 binding: inactive; RanGTP-Imp inh: -1.5; UCH37 DUB inh: 4.3; HNF4A DNA FP: -2.6

Results for CC(=O)Nc1ccc(NC(=O)C(C)OC(=O)/C(C#N)=C/c2ccc(N(C)C)cc2)cc1 (stereo not drawn) ?
AF4-AF9 inh: 3.1; FGF22 binding: inactive; RanGTP-Imp inh: -45; HNF4A DNA FP: -19

What do the screens show for `Cc1ccc(-n2c(C)cc(/C=C3\NC(=O)NC3=O)c2C)c(C)c1`?
AF4-AF9 inh: 5.5; Ecoli growth: 0.64; Vif A3G: 3%; FGF22 binding: inactive; RanGTP-Imp inh: -3.4; UCH37 DUB inh: -4.8; HNF4A DNA FP: 7.8

What do the screens show for `COC(=O)C1=C(C)N(C2CCCCC2)C(=O)C1`?
Ecoli growth: 0.72; Vif A3G: 22%; RanGTP-Imp inh: -0.6; UCH37 DUB inh: 0.1; HNF4A DNA FP: 2.8

What do the screens show for `COc1ccc(C(=O)Nc2ccc3[nH]ncc3c2)cc1OC`?
AF4-AF9 inh: -4.0; Ecoli growth: 0.59; Vif A3G: 1%; FGF22 binding: inactive; RanGTP-Imp inh: -0.1; UCH37 DUB inh: 0.9; HNF4A DNA FP: 2.0

How did CCCCn1c(N)c(N(CCOC)C(=O)c2oc3ccc(Br)cc3c2C)c(=O)[nH]c1=O do in these assays?
AF4-AF9 inh: 1.6; Ecoli growth: 0.62; Vif A3G: 2%; FGF22 binding: inactive; UCH37 DUB inh: -4.2; HNF4A DNA FP: 9.4

Results for CC(C)c1ccc(OCCCCN2CCCCC2)cc1 ?
AF4-AF9 inh: 1.2; Ecoli growth: 0.64; Vif A3G: 1%; FGF22 binding: inactive; RanGTP-Imp inh: 4.2; UCH37 DUB inh: 2.8; HNF4A DNA FP: -4.7

Results for COc1cc(C2C3=C(CCCC3=O)OC3=C2C(=O)CCC3)ccc1OCC(=O)Nc1ccccc1 ?
AF4-AF9 inh: -1.5; Ecoli growth: 0.67; Vif A3G: 8%; FGF22 binding: inactive; RanGTP-Imp inh: 1.5; UCH37 DUB inh: 3.6; HNF4A DNA FP: -2.0

How did CC1CN(C(C)C)C(=S)NC1=O (stereo not drawn) do in these assays?
AF4-AF9 inh: -0.5; Ecoli growth: 0.73; Vif A3G: -3%; FGF22 binding: inactive; UCH37 DUB inh: -2.6; HNF4A DNA FP: -2.1

Results for Fc1cccc(COc2ccccc2CNc2ccccc2)c1 ?
Ecoli growth: 0.7; Vif A3G: 9%; RanGTP-Imp inh: -0.2; UCH37 DUB inh: -0.4; HNF4A DNA FP: -1.1

Random excerpt: 4 compounds from above.
What do the screens show for `COC(=O)C1=C(C)N(C2CCCCC2)C(=O)C1`?
Ecoli growth: 0.72; Vif A3G: 22%; RanGTP-Imp inh: -0.6; UCH37 DUB inh: 0.1; HNF4A DNA FP: 2.8

Results for COc1cc(C2C3=C(CCCC3=O)OC3=C2C(=O)CCC3)ccc1OCC(=O)Nc1ccccc1 ?
AF4-AF9 inh: -1.5; Ecoli growth: 0.67; Vif A3G: 8%; FGF22 binding: inactive; RanGTP-Imp inh: 1.5; UCH37 DUB inh: 3.6; HNF4A DNA FP: -2.0

Results for Fc1cccc(COc2ccccc2CNc2ccccc2)c1 ?
Ecoli growth: 0.7; Vif A3G: 9%; RanGTP-Imp inh: -0.2; UCH37 DUB inh: -0.4; HNF4A DNA FP: -1.1

How did CC1CN(C(C)C)C(=S)NC1=O (stereo not drawn) do in these assays?
AF4-AF9 inh: -0.5; Ecoli growth: 0.73; Vif A3G: -3%; FGF22 binding: inactive; UCH37 DUB inh: -2.6; HNF4A DNA FP: -2.1

Other results
Results for O=C(CCNC(=O)c1ccc([N+](=O)[O-])cc1)NCC1COc2ccccc2O1 (stereo not drawn) ?
AF4-AF9 inh: -14; Ecoli growth: 0.68; Vif A3G: 0%; FGF22 binding: inactive; UCH37 DUB inh: 3.4; HNF4A DNA FP: -0.7

How did COc1ccc(NC(=O)CCCOc2ccc(C(C)=O)cc2)cc1S(=O)(=O)N1CCCCC1 do in these assays?
AF4-AF9 inh: -6.4; Vif A3G: -5%; FGF22 binding: inactive; HNF4A DNA FP: 4.3

How did Cc1noc(C)c1C(=O)Nc1sc2c(c1C(N)=O)CCCCC2 do in these assays?
AF4-AF9 inh: -17; Ecoli growth: 0.73; Vif A3G: 27%; FGF22 binding: inactive; RanGTP-Imp inh: 3.6; UCH37 DUB inh: 3.4; HNF4A DNA FP: 2.3

What do the screens show for `COc1ccc(C(=O)Nc2cc(C)nn2-c2cccc(F)c2)cc1OC`?
AF4-AF9 inh: -0.5; Ecoli growth: 0.64; FGF22 binding: inactive; RanGTP-Imp inh: 3.8; UCH37 DUB inh: 0.1; HNF4A DNA FP: -3.9

Results for O=C(CSc1ncnc2sc3c(c12)CCCC3)c1ccco1 ?
Ecoli growth: 0.76; Vif A3G: 21%; RanGTP-Imp inh: -1.3; UCH37 DUB inh: 1.4; HNF4A DNA FP: 1.7

Results for COc1cccc(NC(=O)[C@H](Cc2ccccc2)NC(=O)[C@@H]2Cc3ccccc3CN2)c1 ?
AF4-AF9 inh: 1.3; Ecoli growth: 0.72; Vif A3G: -6%; FGF22 binding: inactive; RanGTP-Imp inh: -1.3; UCH37 DUB inh: 3.6; HNF4A DNA FP: 2.8

How did CCOCN(C(=O)Cn1c(CO)nc2ccccc21)c1c(C)cccc1CC do in these assays?
Ecoli growth: 0.66; Vif A3G: -1%; RanGTP-Imp inh: -3.7; UCH37 DUB inh: -1.7; HNF4A DNA FP: 1.6

How did CC1=CC2=NC(=O)/C(=C\c3cccn3CCOc3ccccc3)C(=N)N2O1 do in these assays?
AF4-AF9 inh: 13; Ecoli growth: 0.66; Vif A3G: 1%; RanGTP-Imp inh: -0.7; UCH37 DUB inh: 0.2; HNF4A DNA FP: 1.9

Results for CCCCCCN1C[C@H](O)[C@@H](n2cc(C3CC3)nn2)C[C@@H]1c1ccc(Cl)cc1 ?
AF4-AF9 inh: -1.1; Vif A3G: -3%; FGF22 binding: inactive; HNF4A DNA FP: -1.3
